rRNA inh HTS = reduced GFP signal of wild-type E. coli, primary screen, bacterial rRNA inhibitor project, GFP/RFP fluorescence, OD600, single point; GFP signal change (wild-type ribosome), % (concentration not given with the values); 350,000 tested, 1.6% active; E. coli WT GFP vs humanized-ribosome RFP mutants, 24 h; hits give low values; DMSO median 0, no signal -100;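 active means significant combined selectivity score with lowered wild-type GFP, culture density cut under 30%, mutant RFP and density less affected; inactive means any of these conditions unmet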; further: one replicate is shown; some compounds called inactive have numbers as strong as hits
RanGTP-Impb inh = inhibitors of RanGTP-importin-beta interaction, primary screen, biochemical, FRET, CFP-Ran, YFP-importin-beta, homogeneous; Ran GTPase (GTP-bound) - importin-beta complex; cell-free CFP-Ran/YFP-importin-beta FRET ratio; inhibition, % (test concentration not listed); 300,000 tested, 1.1% active; AID 2216, 2009;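 active means most replicates above 15%; inconclusive means exactly half above 15%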;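 further: 0% = DMSO wells and 100% = Ran loaded with GDP instead of GTP; wells of about 40 µL received 100 nL stock; the first replicate is given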
Calb FLC = C. albicans growth inhibition with fluconazole, primary screen, CaCi-2 strain, Alamar Blue fluorescence | growth inhibition, % (no concentration beside the values) | C. albicans CaCi-2 (fluconazole-resistant clinical isolate) + fluconazole, 48 h | AID 1979, 2009 | 300,000 tested, 0.57% active;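 active means most replicates above 75%; inconclusive means exactly half above 75%; inactive means most below 75%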;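 further: all wells also contain fluconazole at 8 µg/ml as a sub-toxic cotreatment; 0% = median of DMSO wells and 100% = median of geldanamycin control wells; wells of about 8 µL received 7.5 nL stock; the first replicate is given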
A1 inh = caspase 3/7 activation in MEF A1-2A-BIM cells, primary screen, A1 inhibitor project, cell-based, luminescence, HTS. Caspase-Glo 3/7 luminescence, 3 h; percent of clofoctol response, vehicle zero. caspase activation, % (test concentration not listed). 330,000 tested, 0.066% active. AID 2462, 2010;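 active means over half of replicate activation scores above 10%, or exactly half above 10 with the replicate mean above 10; inconclusive means replicate mean below 10 yet half the replicates above 10; inactive means over half of replicates below 10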;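 further: wells of about 30 µL received 50 nL stock; many hits fall short of the cut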
Beta apoptosis = inhibitors of cytokine-induced beta cell apoptosis, primary screen, luminescence; protection from apoptosis, % (concentration not given with the values); INS-1E cytokine-induced death, ATP luminescence, 48 h; percent of positive-control rescue, neutral wells zero; 300,000 tested, 0.8% active; AID 435005, 2010;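 active means all replicates at 75% or more, or half of them and the mean; inconclusive means half reach 75% but not the mean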;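 further: 0% = cytokine-treated negative control wells and 100% = positive control rescue; higher means more ATP so stronger rescue from cytokine killing; wells of about 40 µL received 100 nL stock; the first replicate is given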
AF4-AF9 inh = inhibitors of AF4 peptide binding to AF9, primary screen, biochemical, AlphaScreen, biotin-AF4 peptide, FLAG-AF9, single point. Protein AF-9 (Homo sapiens), P42568. inhibition, % at 10 µM. 350,000 tested, 0.47% active;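 active means every replicate reaching a set inhibition limit, whatever the replicate mean, cut at about 25% in these data; inconclusive means mean inhibition reaches that limit but some replicates miss it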;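 further: 0% = plate neutral control median and 100% = total signal loss; the record names both 10 and 1 µM as test concentration; the first replicate is given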
Target sequence (P42568 whole entry, looked up): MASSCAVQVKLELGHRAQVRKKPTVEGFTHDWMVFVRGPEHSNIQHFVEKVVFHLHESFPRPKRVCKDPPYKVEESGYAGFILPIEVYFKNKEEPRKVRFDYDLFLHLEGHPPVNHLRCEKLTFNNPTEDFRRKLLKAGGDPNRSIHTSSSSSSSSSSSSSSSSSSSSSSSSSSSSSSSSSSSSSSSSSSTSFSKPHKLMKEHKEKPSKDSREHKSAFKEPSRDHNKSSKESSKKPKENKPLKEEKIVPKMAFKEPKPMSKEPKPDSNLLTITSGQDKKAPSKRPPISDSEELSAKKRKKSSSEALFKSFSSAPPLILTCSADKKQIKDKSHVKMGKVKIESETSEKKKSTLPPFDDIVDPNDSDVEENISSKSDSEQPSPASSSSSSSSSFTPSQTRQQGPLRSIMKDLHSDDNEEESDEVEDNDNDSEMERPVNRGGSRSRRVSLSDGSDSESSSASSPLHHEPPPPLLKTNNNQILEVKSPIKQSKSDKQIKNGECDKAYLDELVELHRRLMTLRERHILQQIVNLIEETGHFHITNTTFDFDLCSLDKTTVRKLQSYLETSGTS
Vif TR-FRET = inhibitors of Vif binding to APOBEC3G peptide, primary screen, biochemical, TR-FRET, GST-Vif 1-94, biotin-A3G peptide, dose response retest (AID 1117319); Virion infectivity factor (Human immunodeficiency virus type 1 group M subtype B (isolate …; one-dose inhibition, %; IC50 in µM for titrated hits; TR-FRET GST-Vif / biotin-A3G peptide binding; higher % means a stronger effect; test concentration not given here; strong numbers were not always called active; 260,000 tested, 0.57% active;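 active means above the screen mean plus three standard deviations and confirmed in dose response; inconclusive means results disagree or hit not tested in dose response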;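 further: Vif residues 1-94 fused to GST binding biotinylated APOBEC3G peptide 110-148; 0% = full assay without inhibitor and 100% = GST in place of GST-Vif; retest series ran down from 100 µM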
T cruzi inh = inhibitors of intracellular T. cruzi growth, primary screen, luminescence, NIH3T3 host cells; T. cruzi beta-gal in NIH3T3, 90 h; inhibition, % (no concentration beside the values); 300,000 tested, 1.4% active; AID 1885, 2009;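 active means mean inhibition across valid replicates above about 55%, limit read from the data; inconclusive means mean below that limit but half or more replicates reach it; inactive means mean below it, under half of replicates reach it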;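 further: signal also drops with host cell toxicity which is not excluded here; 0% = plate median of DMSO wells and 100% = zero luminescence signal; higher percent means less beta-gal luminescence so fewer parasites; stock transfer was 50 nL into about 50 µL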
rRNA inh HTS OD600 = further read-out of rRNA inh HTS, marked with its call; OD600 change, %; measured here: OD600 growth;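 optical density of the mix in the first replicate; 0 = DMSO median and -100 = no signal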
rRNA inh HTS RFP = recorded beside rRNA inh HTS, whose call it bears; RFP signal change, %; measured here: RFP humanized mutant strains;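 first replicate; 0 = DMSO median and -100 = no signal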
Active calls of the source: *; ? = inconclusive; . = no result given. These rows are one share of the data, so the mix of outcomes need not match the whole.

SMILES	rRNA inh HTS	rRNA inh HTS OD600	rRNA inh HTS RFP	RanGTP-Impb inh	Calb FLC	A1 inh	Beta apoptosis	AF4-AF9 inh	Vif TR-FRET	T cruzi inh
C=CCSc1nnc(C)n1-c1ccc(Cl)cc1	3	0	-2.6	3.1	0	-0.4	0	.	3%	-12
Cc1ccccc1NC(=S)N(Cc1cccs1)C1CCCC1	-24*	-14*	-0.5*	-2.4	-20	1.0	-6	-1.8	-7%	-13
O=C(CCN1C(=O)c2ccccc2C1=O)OCN1C(=O)c2ccccc2C1=O	.	.	.	-0.2	-1	0.6	.	.	22%	-21
CCCCn1c(N)c(N(CCOC)C(=O)c2ccc(NC3CC3)c([N+](=O)[O-])c2)c(=O)[nH]c1=O	4	1	1.2	3.9	15	0.5	-5	0.6	-2%	0
COc1ccc(C(=O)Nc2nnc(S(=O)(=O)Cc3ccccc3)s2)cc1	16	10	0.9	-0.3	0	-1.1	-4	-1.7	-6%	-1
Cc1cc(C)nc(N2N=C(c3ccccc3)CC2=O)n1	-3	-11	0.4	0.7	4	-0.7	-2	-1.5	12%	-20
O=C(Nc1nnc(-c2cccs2)o1)c1cccc(F)c1	-58	-80	-27	5.0	87*	-1.5	-1	-3.0	.	26
CC1CC(C)CN(C(=O)c2ccc(C(=O)c3ccccc3)cc2)C1 (stereo unspecified)	-28	-36	-12	-2.4	-1	1.3	4	0.3	0%	0
Cc1ccnc(NC(=O)CSc2ccc3c(c2)OCCO3)c1	-5	1	0.4	-1.1	-4	-2.2	-37	10	.	2
Cc1nnc(NCCc2ccccc2)c2ccccc12	2	-18	-9.3	-1.2	19	0.3	5	3.0	.	22
Cc1ccc(O)c(NC(=O)CSc2n[nH]c(C)c2[N+](=O)[O-])c1	-25	-33	-2.9	-1.6	8	0.4	5	-1.1	-2%	-13
Cc1nc2ccc(S(=O)(=O)NCC(=O)N3CCCC(C)C3)cc2s1 (stereo unspecified)	.	.	.	?	-7	0.3	-4	.	-3%	-12
Cc1ccc2c(N)c(C(=O)N(c3ccccc3)c3ccccc3)sc2n1	.	.	.	-2.6	16	1.8	1	.	-10%	67*
CC(C)(C)C(=O)NC1(C(F)(F)F)NC(=O)N(c2ccccc2F)C1=O (stereo unspecified)	-2	10	3.8	?	-5	0.7	0	2.3	-13%	-1
Cc1sc(NC(=O)CSc2nnc(-c3ccc(F)cc3)o2)c(C#N)c1C	.	.	.	-1.3	10	-0.2	3	.	0%	-2
CCCNC(=O)C(CC)NC(=O)c1cccc([N+](=O)[O-])c1 (stereo unspecified)	22	14	-0.4	.	.	-0.3	-6	2.5	.	.
CCc1ccc(OCC(=O)NNC(=O)Cc2c(F)cccc2Cl)cc1	10	14	-1.1	1.9	6	0.1	1	0.8	-2%	-9
Cc1ccc(C(=O)NNC(=S)NC(=O)c2ccccc2)cc1	-32	-48	-6.4	0.6	36	0.8	.	5.0	.	30
CC(C)c1ccc(NC(=O)c2cc(Br)ccc2Br)cc1	-4	9	0.9	3.9	-14	-0.7	13	0.6	13%	29
O=C(Nc1ccc(Cl)c(S(=O)(=O)N2CCOCC2)c1)c1cn2ccccc2n1	0	4	-1.3	-1.0	5	0.6	.	0.6	-2%	-5
CCN(CC)c1ccc(NC(=O)c2ccc(Br)o2)cc1	.	.	.	0.6	-2	-6.0	12	.	>100µM*	-11
O=C(CSc1nnc(-c2ccc(Cl)cc2)n1-c1ccc(Cl)cc1)N/N=C/c1ccco1	-25	-12	12	6.1	46	-0.1	10	0.2	.	10
CC(OC(=O)c1ccco1)C(=O)NC1CCCC1 (stereo unspecified)	6	14	-0.9	1.4	24	-0.2	-1	-0.5	.	-9
CC1(NC(=O)CCNC(=O)c2ccc(C(C)(C)C)cc2)CCS(=O)(=O)C1 (stereo unspecified)	1	5	-1.8	.	.	-0.9	-4	-1.7	.	.
COc1ccc(C(=O)NCC(=O)N2CCN(C(=O)c3ccco3)CC2)cc1[N+](=O)[O-]	16	21	6.5	.	.	0.8	-8	-1.4	0%	.
(cont.)
SMILES	rRNA inh HTS	rRNA inh HTS OD600	rRNA inh HTS RFP	RanGTP-Impb inh	Calb FLC	A1 inh	Beta apoptosis	AF4-AF9 inh	Vif TR-FRET	T cruzi inh
CCc1nnc(NS(=O)(=O)c2ccc(NC(=O)C(c3ccccc3)c3ccccc3)cc2)s1	.	.	.	?	0	-0.1	2	-1.2	.	-15
COc1ccccc1-c1c(C)oc2c(CN3CCCCC3C)c(O)ccc2c1=O (stereo unspecified)	2	-2	-2.7	-2.2	3	0.4	-6	-2.1	0%	0
COc1ccc(C(=O)COC(=O)CCN2C(=O)C3C4CC(C(Br)C4Br)C3C2=O)cc1 (stereo unspecified)	.	.	.	-1.6	?	0.1	-6	.	-3%	0
C/C(=N\N=C\c1ccc(N(C)C)cc1)c1cccc([N+](=O)[O-])c1	.	.	.	1.6	-4	0.6	-5	.	?	-16
CCOC(=O)c1nn(-c2ccc(OCC)cc2)c2nc(CC(C)C)c(C#N)c(=O)n12	.	.	.	-1.7	8	-0.1	-1	.	.	-11
CC1CCCC(C)N1CC(O)COc1c(F)cc(Br)cc1F (stereo unspecified)	6	2	-4.4	-2.0	-18	-0.3	1	-1.5	12%	13
Cn1c(Cn2c(=O)sc3ccccc32)nnc1SCc1cccnc1	2	5	-0.2	1.8	8	-0.2	-3	-6.3	4%	3
C[C@H](NC(=O)OC(C)(C)C)c1nnc(SCC(=O)c2ccc(Cl)cc2)o1	.	.	.	-0.2	-18	-0.4	-6	.	?	-15
O=C(Nc1nc(-c2cccnc2)cs1)c1ccccc1Cl	.	.	.	1.3	-4	?	-1	-1.7	-2%	-7
O=C(c1cc2cc(Cl)ccc2[nH]1)N1CCCCC1	5	11	1.6	8.1	-1	-0.3	1	-1.1	.	3
O=C(O)C1C2C=CC(C2)C1C(=O)NCc1cccc(Cl)c1 (stereo unspecified)	-9	-11	1.4	0.6	1	0.2	3	-3.7	.	-13
O=C(NCc1ccccc1Br)C1CCCO1 (stereo unspecified)	10	13	-0.2	2.7	3	0.0	-6	-1.7	.	-2
COc1ccc(OC)c(CN(CCN2CCOCC2)C(=O)Nc2cccc(Cl)c2)c1	.	.	.	3.5	-15	0.2	10	.	.	8
Brc1cccc(-c2nnc(SCc3ccon3)n2-c2ccccc2)c1	-33	-47	-7.5	-1.3	25	-1.4	1	0.9	22%	15
CC(C)CNc1nc(Oc2ccc(=O)[nH]n2)nc(N(C)C)n1	.	.	.	?	-15	2.4	-5	.	7%	-6
C/C=C/c1ccc(OCCN2C(=O)NC(C)(C)C2=O)c(OC)c1	.	.	.	?	2	0.6	.	.	?	-1
CCN(Cc1ccc(OC)c(F)c1)C(C)C(=O)Nc1ccc(S(=O)(=O)N2CCCC2)cc1 (stereo unspecified)	1	-28	0.8	.	.	-0.4	8	-0.6	-5%	.
Cc1ccc(C2C3=C(CC(C)(C)CC3=O)NC3=C2C(=O)c2ccccc23)cc1 (stereo unspecified)	.	.	.	-1.6	-5	0.1	-4	.	11%	24
CCN(CC)S(=O)(=O)c1cc(NS(=O)(=O)c2cccc(Cl)c2Cl)ccc1C	-38*	-8.9*	-1.0*	-2.9	8	-0.3	3	2.0	32%	8
O=C(NCc1ccccc1)N(Cc1cc2cc3c(cc2[nH]c1=O)OCCO3)CC1CCCO1 (stereo unspecified)	.	.	.	-5.5	0	.	.	.	2%	22
O=C(Cn1cnnn1)OCC(=O)c1ccc(Cl)s1	.	.	.	-3.2	-18	0.5	-3	.	3%	-17
COc1ccc(OC)c(NC(=O)CCn2cccc2)c1	.	.	.	3.1	1	0.5	-2	.	11%	-9
O=C(COC(=O)CCCN1C(=O)c2ccccc2C1=O)Nc1cc(Cl)cc(Cl)c1	.	.	.	3.6	3	-0.8	7	.	-4%	-7
COc1cccc(C(=O)NCCS(=O)(=O)NCCc2ccccc2)c1	-1	4	-1.1	4.9	-4	-0.2	-6	-0.5	.	2
CCOc1ccc(/C(CC)=N/NC(=O)C2(C)CC2(Br)Br)cc1 (stereo unspecified)	.	.	.	-4.5	-14	-0.6	-8	.	-7%	5
More entries follow.
SMILES	rRNA inh HTS	rRNA inh HTS OD600	rRNA inh HTS RFP	RanGTP-Impb inh	Calb FLC	A1 inh	Beta apoptosis	AF4-AF9 inh	Vif TR-FRET	T cruzi inh
S=c1[nH]nc(Cc2cccs2)n1-c1ccccc1Cl	-8	-6	-1.6	0.7	14	-0.3	-1	-3.9	9%	11
CC(C)c1nnc(NC(=O)CCC(=O)NCCc2ccccc2)s1	8	11	0.7	-7.3	-10	-0.4	-4	-3.0	-1%	-14
O=C(NCCCO)c1ccc(CSc2nc3ccccc3[nH]2)cc1	-9	-5	0.2	3.1	5	0.8	1	0.2	-6%	-11
CCc1noc(C)c1C(=O)Nc1sc(C(=O)N(C)C)c(C)c1C(=O)OC	.	.	.	-2.9	9	1.6	-8	.	9%	3
O=C(CSc1nnnn1C1CCCCC1)NCc1ccccc1	.	.	.	2.4	-6	-0.2	-12	.	-7%	-1
CCOc1ccc(NC(=O)Nc2ccc3c(c2)N(C)C(=O)CS3)cc1	-7	-8	1.9	-2.1	0	-0.7	.	0.2	0%	8
Cc1c(NC(=O)C(C)OC(=O)/C=C/c2ccccc2)c(=O)n(-c2ccccc2)n1C (stereo unspecified)	5	1	-0.5	4.6	4	-0.6	0	-1.9	-3%	-9
CCOC(=O)CNc1nc2ccccc2n2c(C)nnc12	.	.	.	?	14	0.5	-4	.	71%	-13
OCC1N=C(c2ccccn2)OC1c1ccccc1 (stereo unspecified)	.	.	.	2.3	9	0.2	-5	.	5%	-23
COc1ccc(NC(=O)c2cccc(N3C(=O)c4cccc([N+](=O)[O-])c4C3=O)c2)cc1	-3	-17	-1.7	-0.9	-1	1.1	1	-1.2	.	6
Cc1ccccc1C(=O)Nc1ccnn1C1CCN(CC2CC=CCC2)CC1 (stereo unspecified)	8	12	1.6	3.1	-27	0.0	0	0.2	.	15
CCCN(CCC)CCNC(=O)C1CCN(S(=O)(=O)c2cccc3nsnc23)CC1	10	4	-0.6	0.7	-2	0.7	0	1.5	-1%	4
CC(C)CCN(C(=O)CCSc1ccc(F)cc1)c1c(N)n(Cc2ccccc2)c(=O)[nH]c1=O	1	2	1.7	3.0	-6	1.1	.	1.1	9%	7

Bioassay records deposited in PubChem by several laboratories.
